Bead autofluor – flagged as autofluorescent in microsphere protease counterscreen. compound autofluorescence counterscreen, microsphere flow cytometry; stronger effect = higher value. fluorescence intensity (test concentration not listed). actives 3.1% (n = 360,000);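 active means at least 3 SD above the mean of all compounds, about 16000 in these data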;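 further: 100 nL of 1 mM stock went into each well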
Mtb hypoxia inh – reduces hypoxia-regulated biosensor signal in M. tuberculosis | actives 0.1% (n = 300,000) | AID 1159583 | M. tuberculosis hypoxia-regulated fluorescent reporter, fluorescence | fluorescence inhibition, % (concentration not given with the values);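 active means 35 to 45% if threefold the growth effect, above 45% if 1.5-fold the growth effect; inactive means the rest, general growth blockers included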;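 further: wells of about 50 µL received 100 nL stock; 0% = vehicle wells and 100% = reference inhibitor wells; whole bacteria with a GFP reporter of the hypoxia response; strong numbers were not always called active; many hits fall short of the cut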
RN4220 kill – kills Staphylococcus aureus RN4220; AID 1259311; inhibition, % (concentration not given with the values); actives 0.33% (n = 330,000); S. aureus RN4220 growth, OD600, 16 h;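 active means z-score of -3 or lower and OD600 up to 0.18 on both plates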;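 further: plate controls were untreated cells for no effect and reference antibiotic for full effect; stock transfer was 100 nL into about 80 µL; one replicate is shown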
BJeLR lethal – BJeLR cell viability loss. actives 0.17% (n = 300,000). BJeLR (HRASV12) viability, CellTiter-Glo ATP luminescence, 48 h; reference of the scale not given here. inhibition, % (concentration not given with the values). AID 1554;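 active means replicate mean above 50%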;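 further: 50 nL library stock added to about 25 µL; numbers are from one replicate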
PrP 5UTR inh – inhibition of PrP 5' UTR reporter expression; inhibition, % (test concentration not listed); cell-based PrP 5' UTR mRNA reporter, plate reader; actives 0.35% (n = 340,000);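 active means every replicate at 50% or more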;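 further: 0 = median of the neutral control wells; tested in H4 reporter cells; numbers are from one replicate; inactives centre near -14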
Sa ugtP lethal – growth inhibition of S. aureus ugtP deletion strain | S. aureus RN4220 ugtP deletion, OD600 growth, 16 h; some inactives read as strong as hits | growth inhibition, % (test concentration not listed) | actives 0.54% (n = 330,000) | AID 1259309;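 active means z-score under -3 and OD600 up to 0.15 on both plates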;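 further: plate controls were untreated wells for no effect and antibiotic for full effect; wells of about 80 µL received 100 nL stock; the first replicate is given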
Mtb hypoxia inh growth – second read-out of Mtb hypoxia inh, no call of its own (marks repeat the call); growth inhibition, %; measured here: M. tuberculosis growth (absorbance);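 0% = vehicle and 100% = reference antibiotic; read after six days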
* = called active by the depositor; nt = not tested or not shown.

Codes: A = Bead autofluor; B = Mtb hypoxia inh; C = Mtb hypoxia inh growth; D = RN4220 kill; E = BJeLR lethal; F = PrP 5UTR inh; G = Sa ugtP lethal
[1] CS(=O)(=O)N(CC(=O)N/N=C/c1ccc(OCC(=O)N2CCOCC2)cc1)c1ccccc1Cl
  A: 2111; B: nt; C: nt; D: nt; E: -5; F: -39; G: nt

[2] CCOC(=O)/C(C#N)=N/Nc1ccc(S(=O)(=O)N2CCc3ccccc32)cc1
  A: 2510; B: nt; C: nt; D: nt; E: 5; F: -20; G: nt

[3] CCC(=O)c1ccccc1OCCN1C(=O)NC(C)(C)C1=O
  A: 10087; B: -4; C: 7; D: 1.0; E: 13; F: -55; G: 0

[4] O=C(CN1C(=O)CC(c2ccco2)Sc2ccccc21)NC1CCCCC1 (stereo not given)
  A: 5700; B: 8; C: 6; D: -1.4; E: 2; F: -47; G: 10

[5] C=CCOCC(O)CS(=O)(=O)Cc1ccc(Cl)cc1 (stereo not given)
  A: 2506; B: -2; C: 6; D: 1.8; E: -1; F: -6; G: 0

[6] CC(NC(=O)CC12CC3CC(CC(C3)C1)C2)C(=O)O (stereo not given)
  A: 5041; B: 3; C: 5; D: 3.1; E: -4; F: -19; G: 10

[7] COc1ccccc1N=Nc1ccc(N)c(C)c1
  A: 3000; B: 17; C: 1; D: 9.8; E: -1; F: -16; G: 9

[8] CCOc1cc(/C=N/O)ccc1OCC(=O)Nc1cccc(C)c1
  A: 2416; B: nt; C: nt; D: nt; E: 25; F: -7; G: nt

[9] CCOc1cccc(C(=O)Nc2ccccc2OC(F)F)c1
  A: 2295; B: nt; C: nt; D: 3.1; E: 4; F: -32; G: -2

[10] CCOC(=O)c1cccc(NC(=O)C2CCN(S(=O)(=O)c3cccs3)CC2)c1
  A: 8910; B: 2; C: 2; D: -3.7; E: 3; F: -3; G: 5

New compounds follow:
Codes: A = Bead autofluor; B = Mtb hypoxia inh; C = Mtb hypoxia inh growth; D = RN4220 kill; E = BJeLR lethal; F = PrP 5UTR inh; G = Sa ugtP lethal
[11] COc1ccc(-c2nnc(SC(C)C(=O)Nc3c(C)n(C)n(-c4ccccc4)c3=O)o2)cc1 (stereo not given)
  A: 2514; B: nt; C: nt; D: 6.3; E: -3; F: -12; G: 1

[12] CCN(c1c(C)n(C)n(-c2ccccc2)c1=O)S(C)(=O)=O
  A: 4849; B: nt; C: nt; D: 1.2; E: 9; F: 1; G: 0

[13] NS(=O)(=O)c1ccc(N/N=C2/CCCc3ccccc32)c([N+](=O)[O-])c1
  A: 4228; B: nt; C: nt; D: nt; E: -9; F: -24; G: nt

[14] CCC(Sc1nc2cc(OC)c(OC)cc2c(=O)n1Cc1ccc(OC)cc1)C(=O)NCCOC (stereo not given)
  A: 4193; B: 4; C: 9; D: 4.5; E: 6; F: -25; G: 6

[15] COc1ccc(CN(C)C(=O)c2ccccc2OCc2c(C)noc2C)c(OC)c1
  A: 3919; B: 4; C: 0; D: 6.2; E: nt; F: 2; G: 7

[16] COc1ccc(O)c(-c2cc(-c3cccc(Br)c3)n[nH]2)c1
  A: 3031; B: 11; C: 2; D: 42; E: 8; F: -58; G: 86*

[17] CCOc1cccc(C(=O)Nc2ccc(N(CC)CC)cc2)c1
  A: 3056; B: 17; C: 7; D: 3.1; E: 2; F: -37; G: 14

[18] CC(NC(=O)COC(=O)COc1ccc(Cl)cc1)c1ccccc1 (stereo not given)
  A: 4106; B: 15; C: 5; D: 7.6; E: nt; F: -15; G: 4

[19] CC(=O)Nc1ccc(NS(=O)(=O)c2cccc3nonc23)cc1
  A: 5602; B: 0; C: 2; D: 6.7; E: 0; F: -32; G: 4

[20] C=CCNC(=O)c1cc2sccc2n1C
  A: 3518; B: 11; C: 0; D: 2.0; E: 2; F: -25; G: -3

Next section:
Codes: A = Bead autofluor; B = Mtb hypoxia inh; C = Mtb hypoxia inh growth; D = RN4220 kill; E = BJeLR lethal; F = PrP 5UTR inh; G = Sa ugtP lethal
[21] O=C(Nc1ccc(N2CCOCC2)cc1)c1ccc(Cl)c(S(=O)(=O)N2CCCCC2)c1
  A: 5493; B: -12; C: 2; D: -4.6; E: nt; F: -9; G: -11

[22] Cc1ccc(S(=O)(=O)N2CCOCC2)cc1NC(=O)COc1ccc(-c2nnco2)cc1
  A: 3245; B: -5; C: 9; D: 5.4; E: 0; F: -16; G: 2

[23] Clc1ccc(OCc2noc(-c3ccsc3)n2)c(Cl)c1
  A: 6078; B: 8; C: 7; D: 8.6; E: 3; F: -65; G: -3

[24] COc1cc2ncnc(NCc3cc(F)ccc3F)c2cc1OC
  A: 3894; B: 5; C: 10; D: 0.2; E: 3; F: -14; G: 16

[25] Cc1ccc(N=Cc2ccc(N(C)C)cc2)cc1C
  A: 4390; B: 9; C: 3; D: 2.5; E: -2; F: -15; G: 0

[26] CC1CCN(CCCNC(=O)c2cn(C)c3ccc(S(=O)(=O)N4CCCC4)cc3c2=O)CC1
  A: 8651; B: -3; C: 3; D: 2.4; E: -4; F: -10; G: 1

[27] CN(C)S(=O)(=O)c1cccc(NC(=O)COc2ccc(S(=O)(=O)N3CCOCC3)cc2Cl)c1
  A: 3365; B: 9; C: 9; D: 0.5; E: nt; F: -11; G: 3

[28] COc1cc(-c2noc(C)c2C(=O)NCCc2ccccc2)cc(OC)c1OC
  A: 2840; B: 4; C: 13; D: 12; E: nt; F: -7; G: -1

[29] Cc1ccc(CSCc2ccc(C(=O)NC3CCCC3)o2)cc1
  A: 4394; B: 13; C: -1; D: 3.9; E: -7; F: -10; G: 5

[30] O=S(=O)(NCCc1ccc(Cl)cc1)c1cccs1
  A: 5369; B: -5; C: -4; D: -0.2; E: -3; F: -22; G: -1

Nothing new here: entries from further up.
Codes: A = Bead autofluor; B = Mtb hypoxia inh; C = Mtb hypoxia inh growth; D = RN4220 kill; E = BJeLR lethal; F = PrP 5UTR inh; G = Sa ugtP lethal
[17] CCOc1cccc(C(=O)Nc2ccc(N(CC)CC)cc2)c1
  A: 3056; B: 17; C: 7; D: 3.1; E: 2; F: -37; G: 14

[18] CC(NC(=O)COC(=O)COc1ccc(Cl)cc1)c1ccccc1 (stereo not given)
  A: 4106; B: 15; C: 5; D: 7.6; E: nt; F: -15; G: 4

[19] CC(=O)Nc1ccc(NS(=O)(=O)c2cccc3nonc23)cc1
  A: 5602; B: 0; C: 2; D: 6.7; E: 0; F: -32; G: 4

[20] C=CCNC(=O)c1cc2sccc2n1C
  A: 3518; B: 11; C: 0; D: 2.0; E: 2; F: -25; G: -3

[21] O=C(Nc1ccc(N2CCOCC2)cc1)c1ccc(Cl)c(S(=O)(=O)N2CCCCC2)c1
  A: 5493; B: -12; C: 2; D: -4.6; E: nt; F: -9; G: -11

[22] Cc1ccc(S(=O)(=O)N2CCOCC2)cc1NC(=O)COc1ccc(-c2nnco2)cc1
  A: 3245; B: -5; C: 9; D: 5.4; E: 0; F: -16; G: 2

[23] Clc1ccc(OCc2noc(-c3ccsc3)n2)c(Cl)c1
  A: 6078; B: 8; C: 7; D: 8.6; E: 3; F: -65; G: -3

[24] COc1cc2ncnc(NCc3cc(F)ccc3F)c2cc1OC
  A: 3894; B: 5; C: 10; D: 0.2; E: 3; F: -14; G: 16

[25] Cc1ccc(N=Cc2ccc(N(C)C)cc2)cc1C
  A: 4390; B: 9; C: 3; D: 2.5; E: -2; F: -15; G: 0

[26] CC1CCN(CCCNC(=O)c2cn(C)c3ccc(S(=O)(=O)N4CCCC4)cc3c2=O)CC1
  A: 8651; B: -3; C: 3; D: 2.4; E: -4; F: -10; G: 1

[27] CN(C)S(=O)(=O)c1cccc(NC(=O)COc2ccc(S(=O)(=O)N3CCOCC3)cc2Cl)c1
  A: 3365; B: 9; C: 9; D: 0.5; E: nt; F: -11; G: 3

Following part:
Codes: A = Bead autofluor; B = Mtb hypoxia inh; C = Mtb hypoxia inh growth; D = RN4220 kill; E = BJeLR lethal; F = PrP 5UTR inh; G = Sa ugtP lethal
[31] CCOC(=O)C1CCN(C(=O)c2cc(S(=O)(=O)N(C)C)ccc2N2CCCC2)CC1
  A: 5560; B: -8; C: 5; D: -4.3; E: -11; F: -2; G: -4

[32] Cc1ccc[n+](CC(=O)Nc2ccc(C)c(C)c2)c1
  A: 3959; B: 13; C: 6; D: 1.2; E: 12; F: -24; G: 9

[33] CCC(C)C(CN)NCC1(c2ccccc2)CC1 (stereo not given)
  A: nt; B: 16; C: 12; D: 8.0; E: nt; F: nt; G: 0

[34] O=C(Cn1nc(-c2ccccc2)c2ccccc2c1=O)Nc1ccc2c(c1)nc1n2CCOC1
  A: 10213; B: 16; C: 17; D: 34; E: 17; F: -29; G: 25

[35] CCN(CC)S(=O)(=O)c1ccc(/C=C/C(=O)OCC(=O)c2c(N)n(C)c(=O)n(C)c2=O)cc1
  A: 4513; B: 14; C: 4; D: 5.6; E: 6; F: -9; G: 5

[36] O=C(Nc1ccc2c(c1)OCO2)c1cccc2c1C(=O)N(C1CCCCC1)C2
  A: 4090; B: 11; C: 1; D: 3.2; E: -5; F: -20; G: -8

[37] CCOC(=O)CSc1n[nH]c(=O)n1CCc1ccccc1
  A: 2956; B: -2; C: -5; D: 2.5; E: -3; F: -16; G: 5

[38] CCCNS(=O)(=O)c1cccc(C(=O)NC2CCCc3ccccc32)c1 (stereo not given)
  A: 22288*; B: -4; C: -1; D: -0.8; E: -1; F: 4; G: -5

Screening results (PubChem BioAssay)
